Screening results deposited in PubChem BioAssay by ICCB-Longwood Screening Facility, Harvard Medical School.
RVFV N-RNA FP = blocks Rift Valley Fever Virus nucleoprotein binding to RNA | RVFV N-RNA binding, fluorescence polarization; active compounds read low | % bound, % (test concentration not listed) | 0.1% of 20,000 active | AID 651828;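 active = between 0 and 58% in either replicate with normal brightness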;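 also: 100 nL library stock added to about 12 µL; 100% = protein and probe without compound and 0% = probe alone; numbers are from one replicate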
Target sequence (P21700 whole entry, looked up): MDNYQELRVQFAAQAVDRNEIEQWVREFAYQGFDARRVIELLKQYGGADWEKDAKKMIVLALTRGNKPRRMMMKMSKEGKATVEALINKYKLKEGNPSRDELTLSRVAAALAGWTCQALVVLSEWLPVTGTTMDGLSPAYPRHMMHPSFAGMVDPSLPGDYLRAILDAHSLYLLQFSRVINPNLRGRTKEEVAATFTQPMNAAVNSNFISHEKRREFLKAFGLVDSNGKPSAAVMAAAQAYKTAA
* hit, by the source's call; & = joins results of further samples. Not all compounds are listed; rates above refer to the full screens.

SMILES	RVFV N-RNA FP
O=C(Oc1ccc2cc(-c3ccc(F)cc3)c(=O)oc2c1)c1ccco1	92
O=C(NN1CCOCC1)C12CC3CC(CC(C3)C1)C2	95
O=C(c1ccc(S(=O)(=O)N2CCCCCC2)cc1)N1CCN(c2ccccn2)CC1	95
CC(NC(=O)C12CC3CC(CC(C3)C1)C2)C(=O)N(C)C (centres undefined)	103
Cc1c(Cl)c(C(F)(F)F)nn1CCCNC(=O)C1CCCC1	98
c1ccc(-c2ccccn2)nc1	90
C=C1Cn2c(nc3sc(C)c(C)c3c2=O)S1	96
CCCCc1c(-c2ccc(O)cc2)[nH]c2nccnc12	113
CN1CCc2cccc3c2[C@H]1Cc1ccc(O)c(O)c1-3	99
CCCCOc1ccc(NC(=O)CCC)cc1	99
Fc1ccc(-c2csc(-c3ccc(-c4cccs4)s3)n2)cc1F	98
O=C1CN=C(c2ccc(F)cc2)c2cc(Br)ccc2N1	94
O=C1C=CC(=O)N1CCc1ccc(Cl)cc1	75
[O-]/[N+](=C\c1ccncc1)c1ccccc1	96
Cc1onc(-c2c(F)cccc2Cl)c1C(=O)ONC(=O)c1ccccc1	105
Cc1nc(/C(N)=N/OC(=O)c2c(-c3ccccc3Cl)noc2C)cs1	95
NCC1CCC(C(=O)Oc2ccc(CCC(=O)O)cc2)CC1 (centres undefined)	94
CC(=O)O[C@H]1C(=O)[C@@]2(C)[C@H]([C@H](OC(=O)c3ccccc3)[C@]3(O)C[C@H](OC(=O)[C@H](O)[C@@H](NC(=O)c4ccccc4)c4ccccc4)C(C)=C1C3(C)C)[C@]1(OC(C)=O)CO[C@@H]1C[C@@H]2O	95
COC(=O)CN1C(=S)N(C)C(=O)/C1=C/c1ccco1	99
CCOC(=O)c1ccc(NCc2ccccc2OC)cc1	99
O=C(CCCN1CCN(c2ccccn2)CC1)c1ccc(F)cc1	94
c1ccc(CNc2ncnc3nc[nH]c23)cc1	91
NNc1nc2ccccc2[nH]c1=S	94
CCOC(=O)N1CCN(C2CC(=O)N(c3ccc(I)cc3C)C2=O)CC1 (centres undefined)	91
CN1N=C(C(C)(C)C)CSC1=Nc1ccc(F)cc1	108
CCOC(=O)N1CCN(Cc2ccc(O)c(OC)c2)CC1	94
CC(C)(C)C(=O)/C=C/Nc1ccc(C(=O)O)cc1	95
COC(=O)NCC(c1ccc2c(c1)OCO2)N1CCN(c2ccccc2)CC1 (centres undefined)	95
Nc1ccc(O)cn1	91
N#Cc1cccc(NC(=O)Cc2ccccc2)c1	93
CCc1ccc(S(=O)(=O)N2CCn3cccc3C2c2ccc(OC)c(OC)c2)s1 (centres undefined)	90
NS(=O)(=O)c1ccc(CCNC(=O)c2ccc(Cl)cc2)cc1	90
O=C(N/N=C/c1ccncc1)C1CCCCC1	96
CCC(C)N(CN1C(=S)SC2=NC(=O)CCCN21)C(C)CC (centres undefined)	92
Cc1ccc(CN2CCc3ccccc3C2)o1	95
C/C(=N\N=C(N)N)c1ccccc1	87
CCn1c(SCc2nc3ccccc3c(=O)[nH]2)nnc1-c1ccccc1F	97
CSc1ccc(S(=O)(=O)N(C)C)cc1	103
CN(C)C(=S)c1ccc2ccccc2n1	98
CC(O)C(=O)Nc1cc(Cl)cc(Cl)c1 (centres undefined)	106
COc1ccc(CCNc2nnc(Cc3ccc(Cl)cc3)c(=O)[nH]2)cc1OC	94
Cc1ccc(Cn2cc(C(=O)Nc3cccnc3)ccc2=O)cc1	100
c1ccn(-c2ccc(-c3ccc(-n4cccc4)cc3)cc2)c1	98
CC1CCCC(C)N1CC#CCO (centres undefined)	99
CCc1ccc(NC(=O)CSc2nnc(CNC(=O)c3ccc4c(c3)OCO4)n2C)cc1	95
CCNC(=O)c1ccc(-n2nc(C(F)(F)F)c3c2CCCC3)cc1	100
O=c1c(CN2CCN(Cc3ccccc3)CC2)coc2ccccc12	97
Nc1ccc(C(=O)NN=C2C3CC4CC2CC(O)(C4)C3)cc1	95
O=C(/C=C1\SC(=O)NC1=O)Nc1ccc(F)cc1	98
Cc1ccc(-c2nc3cc(Cl)ccc3o2)cc1NC(=O)c1ccco1	96
CCOCCC(=O)Nc1ccc(Cl)cc1	92
Cc1ccc(N)cc1NS(C)(=O)=O	97
CNC(=O)C1=C(C)Nc2nc3ccccc3n2C1c1ccc(F)cc1 (centres undefined)	86
CC(=O)Nc1c(C#N)c(C(C)(C)C)cn1C	100
CCOC(=O)c1sc2nc(NC(=O)C(C)(C)C)sc2c1C	93
CSc1ccccc1NC(=O)CC(=O)Nc1ccccc1SC	90
O=C(Nc1ccccc1)Nc1ccccc1Br	118
O=C(O)c1cc2cc(Cl)cc(Br)c2oc1=O	96
Clc1ccccc1OCCn1cc(/C=N/n2cnnc2)c2ccccc21	92
CCN1C(=O)CC(NC23CC4CC(CC(C4)C2)C3)C1=O (centres undefined)	92

(next part)
SMILES	RVFV N-RNA FP
CN1C(=O)/C(=C\C(=O)c2cccs2)c2ccccc21	100
CCOc1c(OC)cc(C#N)cc1C(=O)O	98
Cc1cc(C(F)(F)F)nn1CCCNC(=O)c1cccs1	97
Cc1cccc(COC(=O)Nc2ccc(N3CCCCC3)cc2)c1	99
O=c1cnnc(SCc2ccccc2)[nH]1	95
COc1cc(OC)cc(-c2nnc(NC(=O)c3ccc(S(=O)(=O)N4COCC4(C)C)cc3)o2)c1	90
O=C(O)c1ccc(NC(=O)c2cccc(Br)c2)cc1	96
CN1CCN(C(=S)c2cccc(OCc3ccccc3)c2)CC1	85
CC(C)(C)c1ccc(-c2nc(=S)[nH][nH]2)cc1	93
CC(C)NC(=O)CC(C)c1ccccc1 (centres undefined)	101
Cc1ccc2c(c1)c1c(n2CC(O)CO)C(=O)CCC1 (centres undefined)	98
CC(O)C(=O)N/N=C/c1ccccc1 (centres undefined)	89
FC(F)(F)c1ccc(-c2noc(C3CCCCC3)n2)cc1	90
C=CCOc1ccc(NC(=O)c2ccc(C)cc2)cc1	99
Cc1ccc(S(=O)(=O)CCSc2n[nH]c(=O)n2-c2ccc3c(c2)OCCO3)cc1	95
Nc1c2c(nc3c1CCC3)CCCC2	100
O=C(NCC1CCCO1)c1cnn2c(C(F)(F)F)cc(-c3ccccc3)nc12 (centres undefined)	94
CC(c1ccccc1)N1CCC(CN)C1 (centres undefined)	94
CCC(C)(C)NC(=O)Cc1cccs1	109
CCOc1ccccc1NC(=O)CCn1cnnn1	98
CC(C)(C)C(=O)/C(C#N)=C/Nc1ccc(Cl)cn1	94
CN(C(=O)CSCc1ccccc1)c1ccccc1	95
N/C(=N\OC(=O)CSc1ccccc1)c1ccncc1	99
CCNS(=O)(=O)c1ccc(CCC(=O)Nc2ccc(C(=O)OC)cc2)cc1	91
Clc1ccc(C2Oc3ccccc3C3CC(c4ccco4)=NN32)cc1 (centres undefined)	110
Cc1cccc(C)c1OCC(C)N (centres undefined)	94&97
COc1ccc(CNc2cccc(C(=O)O)c2C)cc1OC	92
CC(C)(C)NC(=O)CN1C(=O)CCC1=O	101
CCOC(=O)c1noc(C)c1-c1csc(COc2ccccc2)n1	94
CSc1ccccc1N1C(=O)C=CC1=O	86
CNC(=O)c1ccsc1NC(=O)c1cccc(S(C)(=O)=O)c1	95
CC(=O)NOC(=O)c1c(-c2c(Cl)cccc2Cl)noc1C	94
O=C(NCc1ccccc1)c1cccnc1Nc1ccccc1	95
CC(C)COCC(CN(Cc1ccccc1)c1ccccc1)N1CCCC1 (centres undefined)	104&92
O=S(=O)(NCCOc1cccc2cccnc12)c1ccc(F)cc1	112
NS(=O)(=O)C#Cc1ccccc1	91&96
Clc1ccc(-c2csc(N3CCN(c4ccccc4)CC3)n2)cc1	89
O=C(O)/C=C/c1c(F)c(F)c(N2CCOCC2)c(F)c1F	90
COc1ccc(OCCC(=O)NC2=NCCS2)cc1	96
S=c1[nH]nc(Nc2ccccc2)n1-c1ccccc1	99
COC(=O)Cn1c(=O)n(-c2ccccc2)c(=O)c2oc3ccccc3c21	91
C/C(=N\OCc1nc(-c2cccc(Cl)c2)no1)c1ccc(Cl)cc1	102
COC(=O)CN(C1CCCCC1)S(=O)(=O)c1ccccc1	95
CC(C)(C)CC(C)(C)c1cc(Cc2cc(C(C)(C)CC(C)(C)C)cc(-n3nc4ccccc4n3)c2O)c(O)c(-n2nc3ccccc3n2)c1	102
O=c1[nH]c(=S)[nH]c2c1cnn2-c1ccc(F)cc1	88
Cc1ccc(S(=O)(=O)Nc2cccc(-c3ccc4nnc(C)n4n3)c2)s1	99
CN/N=C/c1ncc(C(F)(F)F)cc1Cl	98
O=S(=O)(Cc1ccc(Cl)cc1Cl)C1CCCCC1O (centres undefined)	100
Cc1cc(C)n(CC(O)CON=C2c3ccccc3-c3ccccc32)n1 (centres undefined)	99
COc1ccc(C2=NN(C(C)=O)CC2)cc1	92
COc1ccc(-n2c(O)c(/C=N/N(C)C)c3ccccc3c2=O)cc1	93
O=C(NCCc1nnc2ccc(SCC(=O)N3CCCC3)nn12)c1ccccc1	88
CCNC(CC(=O)Nc1ccc(O)cc1)C(=O)O (centres undefined)	96
O=c1c(Cc2ccccc2)c(O)nc2ccccn12	98
CCN(CC)c1ncnc2c1ncn2[C@@H]1O[C@H](COP(=O)(O)OP(=O)(O)C(Br)(Br)P(=O)(O)O)[C@@H](O)[C@H]1O	98
C=CCN1C(=O)/C(=C2/C(=O)N(CC=C)c3ccccc32)SC1=S	93
Clc1ccc(-c2noc(CSc3ccccc3)n2)cc1	98
O=C(CSc1nc(C(F)(F)F)cc(=O)[nH]1)NCc1ccco1	107
CC(=O)Nc1cccc(N(C)S(C)(=O)=O)c1	75
CC(=O)OC1C=C2C(Cl)=C[C@@H]3[C@H](CC[C@@]4(C)[C@H]3CC[C@]4(OC(C)=O)C(C)=O)[C@@]2(C)CC1 (some centres undefined)	102

Copied from the list.
For RVFV N-RNA FP, O=C(CSc1nc(C(F)(F)F)cc(=O)[nH]1)NCc1ccco1 shows 107
For RVFV N-RNA FP, NS(=O)(=O)c1ccc(CCNC(=O)c2ccc(Cl)cc2)cc1 shows 90
For RVFV N-RNA FP, c1ccc(CNc2ncnc3nc[nH]c23)cc1 shows 91
For RVFV N-RNA FP, CCOC(=O)c1noc(C)c1-c1csc(COc2ccccc2)n1 shows 94
For RVFV N-RNA FP, Nc1ccc(C(=O)NN=C2C3CC4CC2CC(O)(C4)C3)cc1 shows 95
For RVFV N-RNA FP, CCNC(CC(=O)Nc1ccc(O)cc1)C(=O)O (centres undefined) shows 96

Following part
SMILES	RVFV N-RNA FP
CC(C)NS(=O)(=O)c1ccc(OCC(=O)O)c(Cl)c1	94
COC(=O)c1c(C)oc2ccc(NS(=O)(=O)c3ccc(OC)cc3)cc12	94
COP(=S)(OC)Oc1ccc(SC)c(C)c1	99
CCCN1CSC(=S)N(CCC)C1	104
COc1ccc(C(=O)c2c(/C=C/N(C)C)oc3ccc(OC)cc23)cc1	112
COc1ccc(OC)c2sc(NC(=O)/C=C/c3cccs3)nc12	99
O=c1n(CCCN2CCN(c3cccc(Cl)c3)CC2)nc2ccccn12	97&95
CN(C)c1ccc(NC(=O)/C=C/c2ccccc2)cc1	96
COC(=O)c1ccc(N2CCN(C)CC2)c(NC(C)=O)c1	99
CCN1C(=O)C(=Cc2cccn2-c2ccc(N(C)C)cc2)C(=O)N(CC)C1=S	79
CC(=O)Nc1ccc(C(=O)c2ccccc2)cc1	93
O=C(O)c1ccccc1C(=O)OCc1ccc(F)cc1F	91
O=c1ccc(-c2n[nH]c(=S)n2-c2ccc(F)c(Cl)c2)n[nH]1	101
Cn1c(C(C#N)C(=O)c2ccccc2Br)nc2ccccc21 (centres undefined)	97
CC(C)c1cccc(C(C)C)c1O	102&98&97
CCOC(=O)C1CCCN(Cc2ccc(Cl)cc2)C1 (centres undefined)	97
Cc1cc(C(=O)Nc2ccc(S(N)(=O)=O)cc2)no1	92
C#CCSc1nnc2n(CC)c(=O)c3c(n12)-c1ccccc1CC31CCCCC1	102
O/N=C/C(=N/O)c1ccc(Br)cc1	100
COc1cccc(C(=O)Nc2ccc(-c3ccc4nnc(C)n4n3)cc2)c1OC	93
NC(=S)NNc1ccc(S(N)(=O)=O)cc1	97
NS(=O)(=O)c1ccc(CNC(=O)COc2ccc(Cl)cc2)cc1	95
O=C1CC[C@@H](C(=O)O)N1	100
O=C(c1ccccc1)N1CCOc2ccccc21	93

2 entries from above, reformatted.
O=C1CC[C@@H](C(=O)O)N1
  RVFV N-RNA FP: 100
O=C(c1ccccc1)N1CCOc2ccccc21
  RVFV N-RNA FP: 93

Nine entries from above, sorted by number of heavy atoms, rising:
SMILES	RVFV N-RNA FP
O=C1CC[C@@H](C(=O)O)N1	100
CC(C)c1cccc(C(C)C)c1O	102&98&97
NC(=S)NNc1ccc(S(N)(=O)=O)cc1	97
O=C(c1ccccc1)N1CCOc2ccccc21	93
CCOC(=O)C1CCCN(Cc2ccc(Cl)cc2)C1 (centres undefined)	97
O=C(O)c1ccccc1C(=O)OCc1ccc(F)cc1F	91
Cn1c(C(C#N)C(=O)c2ccccc2Br)nc2ccccc21 (centres undefined)	97
NS(=O)(=O)c1ccc(CNC(=O)COc2ccc(Cl)cc2)cc1	95
C#CCSc1nnc2n(CC)c(=O)c3c(n12)-c1ccccc1CC31CCCCC1	102

(listing goes on)
SMILES	RVFV N-RNA FP
O=C1c2ccc(C34CC5CC(CC(C5)C3)C4)cc2C(=O)N1CCN1CCOCC1	96
COc1ccc(C2NS(=O)(=O)N=C2N)cc1 (centres undefined)	94
CN(C)c1ccc(/C=C/CN2CCC(O)CC2)cc1	94
Cc1ccc(NC(=O)Nc2c(C)noc2-c2cccs2)cc1	95
CCN(c1ccccc1)c1ncnc(N)n1	95
Cc1cc2c(cc1Cl)N(C(=O)Nc1ccnc3ccccc13)CC2	93
Cn1cc(C2=C(c3cn(CCCSC(=N)N)c4ccccc34)C(=O)NC2=O)c2ccccc21	105
N#Cc1cc(C#N)c(SCc2ccc(Cl)cc2)nc1N	88
CCOC(=O)N1CCC(N/C=C(\C#N)S(=O)(=O)c2ccc(Cl)cc2)CC1	97
N#Cc1ccccc1NC(=O)c1ccc(N2C(=O)CCC2=O)cc1	97
O=C(Cc1ccccc1)Nc1ccc(N2CCCC2=O)cc1	97
Cc1ccc(C(=O)Nc2ccccc2N2CCCCC2)c(C)c1	98
CC(=O)Oc1ccccc1C(=O)NCc1ccc(F)cc1	101
CON1C(=O)c2ccccc2C1=O	89
